# Sa ugtP lethal: compounds lethal to S. aureus RN4220 ugtP deletion mutant; OD600 growth, 16 h; some inactives read as strong as hits; AID 1259309; 330,000 compounds, 0.54% hits; growth inhibition, % (test concentration not listed);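 active = z-score under -3 and OD600 up to 0.15 on both plates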;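 also: plate controls were untreated wells for no effect and antibiotic for full effect; wells of about 80 µL received 100 nL stock; the first replicate is given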
# BJeLR viability: kills HRASV12-expressing BJeLR cells; BJeLR (HRASV12) viability, CellTiter-Glo ATP luminescence, 48 h; reference of the scale not given here; inhibition, % (concentration not given with the values); 300,000 compounds, 0.17% hits;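 active = replicate mean above 50%; inconclusive = above 50% but judged a plate artefact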;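 also: 50 nL library stock added to about 25 µL; numbers are from one replicate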
# PrP 5UTR inh: suppresses PrP 5' UTR mRNA reporter expression; inhibition, % (concentration not given with the values); 340,000 compounds, 0.35% hits; cell-based PrP 5' UTR mRNA reporter, plate reader;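 active = every replicate at 50% or more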;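 also: 0 = median of the neutral control wells; tested in H4 reporter cells; numbers are from one replicate; inactives centre near -14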
# Mtb hypoxia rep: Mtb hypoxia fluorescent reporter inhibition. M. tuberculosis hypoxia-regulated fluorescent reporter, fluorescence. fluorescence inhibition, % (concentration not given with the values). 300,000 compounds, 0.1% hits. AID 1159583;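 active = 35 to 45% if threefold the growth effect, above 45% if 1.5-fold the growth effect; inactive = the rest, general growth blockers included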;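 also: wells of about 50 µL received 100 nL stock; 0% = vehicle wells and 100% = reference inhibitor wells; whole bacteria with a GFP reporter of the hypoxia response; strong numbers were not always called active; many hits fall short of the cut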
# Sa RN4220 lethal: S. aureus RN4220 growth inhibition | AID 1259311 | OD600, 16 h | 330,000 compounds, 0.33% hits | inhibition, % (test concentration not listed);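 active = z-score of -3 or lower and OD600 up to 0.18 on both plates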;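 also: plate controls were untreated cells for no effect and reference antibiotic for full effect; stock transfer was 100 nL into about 80 µL; one replicate is shown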
# Autofluor counter: counter-screen for toxin protease inhibitors: compound fluorescence. compound autofluorescence counterscreen, microsphere flow cytometry; stronger effect = higher value. fluorescence intensity (concentration not given with the values). 360,000 compounds, 3.1% hits;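 active = at least 3 SD above the mean of all compounds, about 16000 in these data; inconclusive = too few beads counted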;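 also: 100 nL of 1 mM stock went into each well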
# Mtb hypoxia rep growth: further read-out of Mtb hypoxia rep, marked with its call; growth inhibition, %; measured here: M. tuberculosis growth (absorbance);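 0% = vehicle and 100% = reference antibiotic; read after six days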
# The depositor's hits bear a star; ? = inconclusive; / = not tested or not shown.
# Assay codes: A = Sa ugtP lethal; B = BJeLR viability; C = PrP 5UTR inh; D = Mtb hypoxia rep; E = Mtb hypoxia rep growth; F = Sa RN4220 lethal; G = Autofluor counter
CCn1cc(C(=O)NCCCOC)c(=O)c2cc(S(=O)(=O)N(C)C3CCCCC3)ccc21
  A = 3; B = -15; C = -7; D = /; E = /; F = 11; G = 5587

Clc1ccc(Nc2nc(-c3cccs3)cs2)nc1
  A = 70; B = 7; C = -154; D = -2; E = 3; F = 65; G = 10145

COCCNC(=O)COC(=O)c1[nH]c(C)c(C(C)=O)c1C
  A = 14; B = 0; C = 4; D = /; E = /; F = 3.3; G = 2190

CN(C(=O)c1ccc2c(=O)n3c(nc2c1)CCCCC3)c1ccccc1Cl
  A = -3; B = -7; C = -22; D = 8; E = 10; F = 7.6; G = 5865

Cc1nc(SC(C)C)[nH]c(=O)c1Cc1ccccc1
  A = 1; B = 3; C = -18; D = 12; E = 2; F = 3.9; G = 23840*

COc1ccc2nccc(/C=C/c3ccnc4ccc(OC)cc34)c2c1
  A = -6; B = -6; C = /; D = 5; E = 4; F = -3.3; G = 4681

CC(=O)NC(=S)Nc1cccc(S(=O)(=O)NC2=NCCC2)c1
  A = -1; B = 12; C = -20; D = 6; E = 5; F = 8.3; G = 6796

CCc1ccc(OCC(=O)N/N=C(\C)c2ccc(O)cc2O)cc1
  A = /; B = -10; C = -2; D = /; E = /; F = /; G = 4232

COC(=O)CN(c1ccccc1F)S(=O)(=O)c1ccccc1
  A = -2; B = -12; C = -22; D = 18; E = 8; F = 3.3; G = 3613

CCN(CC1COc2ccccc2O1)C(=S)NCCCN(C)C (configuration not stated)
  A = 3; B = 1; C = -9; D = -10; E = 3; F = -1.7; G = 4755

# 3 compounds drawn at random from those above, as already listed:
# Assay codes: A = Sa ugtP lethal; B = BJeLR viability; C = PrP 5UTR inh; D = Mtb hypoxia rep; E = Mtb hypoxia rep growth; F = Sa RN4220 lethal; G = Autofluor counter
CCN(CC1COc2ccccc2O1)C(=S)NCCCN(C)C (configuration not stated)
  A = 3; B = 1; C = -9; D = -10; E = 3; F = -1.7; G = 4755

COC(=O)CN(c1ccccc1F)S(=O)(=O)c1ccccc1
  A = -2; B = -12; C = -22; D = 18; E = 8; F = 3.3; G = 3613

COCCNC(=O)COC(=O)c1[nH]c(C)c(C(C)=O)c1C
  A = 14; B = 0; C = 4; D = /; E = /; F = 3.3; G = 2190

# Next results follow:
# Assay codes: A = Sa ugtP lethal; B = BJeLR viability; C = PrP 5UTR inh; D = Mtb hypoxia rep; E = Mtb hypoxia rep growth; F = Sa RN4220 lethal; G = Autofluor counter
OC1(c2ccccc2)CC(c2ccccc2)c2ccccc2O1 (configuration not stated)
  A = 12; B = /; C = -1; D = 8; E = 4; F = 6.0; G = 3050

CCSc1nnc(NC(=O)c2cc(C)nc3ccccc23)s1
  A = -5; B = -4; C = -22; D = -4; E = 13; F = 11; G = 4823

COc1ccc(CCNC(=O)C2CCC(C(C)(C)C)CC2)cc1OC (configuration not stated)
  A = -2; B = 1; C = -2; D = -6; E = 17; F = 0.3; G = 5096

CCCCN(C(=O)c1ccc(C)cc1)c1c(N)n(CCC)c(=O)[nH]c1=O
  A = 7; B = -4; C = -21; D = 10; E = -3; F = 1.8; G = 3586

COc1cccc(C(=O)c2c[nH]c(C(=O)NCc3cccnc3)c2)c1
  A = 15; B = 4; C = -9; D = 5; E = 12; F = 0.5; G = 4267

O=C(NNc1c(F)c(F)cc(F)c1F)C1CCN(S(=O)(=O)c2ccccc2F)CC1
  A = 4; B = /; C = -3; D = 13; E = 4; F = 7.4; G = 3844

O=C(O)/C=C/C(=O)Nc1ccc(OC(F)(F)F)cc1Br
  A = 1; B = 1; C = -39; D = 7; E = 12; F = 0.0; G = /

Cc1occc1C(=O)NN=C/C(Br)=C/c1ccccc1
  A = 2; B = /; C = /; D = 4; E = 7; F = -1.5; G = /

O=C(/C=C/c1c(F)cccc1Cl)NCCCN1CCOCC1
  A = -3; B = -2; C = -8; D = 10; E = 7; F = 2.5; G = 4888

CNC(=O)c1[nH]cnc1C(=O)Nc1ccccc1
  A = 1; B = /; C = -5; D = 16; E = 9; F = 8.5; G = 3421

# Following part
# Assay codes: A = Sa ugtP lethal; B = BJeLR viability; C = PrP 5UTR inh; D = Mtb hypoxia rep; E = Mtb hypoxia rep growth; F = Sa RN4220 lethal; G = Autofluor counter
Nc1cc(N)nc(SCCc2ccccc2)n1
  A = 1; B = -11; C = -28; D = 2; E = -7; F = 1.3; G = 4387

O=C(CNC(=O)Cc1cccc2ccccc12)NCc1ccc(F)cc1
  A = 4; B = -4; C = -38; D = -1; E = 11; F = -0.8; G = 4918

NC(=O)C1CCN(c2ccc(C(F)(F)F)cn2)CC1
  A = 4; B = 7; C = -19; D = 10; E = -1; F = 2.6; G = 4311

O=C1CCC(=O)N1CCCCCc1nc(-c2ccccc2)no1
  A = -4; B = 7; C = -30; D = /; E = /; F = -1.3; G = 2831

O=C(CCC1CCCC1)N1CCN(C(=O)c2cccnc2)CC1
  A = 0; B = 1; C = 2; D = -2; E = 15; F = 1.8; G = 9965

COc1ccc(N(C)C(=O)c2cc3c(s2)-c2ccccc2S(=O)(=O)C3)cc1
  A = 10; B = 0; C = -12; D = 12; E = 14; F = 2.3; G = 3335

COCCn1c(N)c(N(Cc2ccccc2)C(=O)C2CCCCC2)c(=O)[nH]c1=O
  A = 1; B = 7; C = -9; D = 5; E = 0; F = 0.3; G = 3239

N/C(=N\OC(=O)c1cccc([N+](=O)[O-])c1)c1ccccn1
  A = /; B = -3; C = -59; D = /; E = /; F = /; G = 4153

O=C(Cc1cccs1)NC1CCCC1
  A = 11; B = -1; C = -9; D = 9; E = 23; F = 0.9; G = 4529

Cc1ccc2nc(-c3cccnc3)c(Nc3ccccc3C)n2c1
  A = -7; B = -21; C = -29; D = -14; E = -10; F = 0.8; G = 4772

# (further entries)
SMILES,Sa ugtP lethal,BJeLR viability,PrP 5UTR inh,Mtb hypoxia rep,Mtb hypoxia rep growth,Sa RN4220 lethal,Autofluor counter
COc1ccc(C2=NN(C(=O)CCC(=O)O)C(c3ccc([N+](=O)[O-])cc3)C2)cc1 (configuration not stated),5,-2,-15,5,-4,1.0,/
CCn1c(SCC(=O)N2CCCc3ccccc32)nc2c1c(=O)n(C)c(=O)n2C,8,-8,-19,3,1,2.9,22886*
CS(=O)(=O)c1ccc(NC(=O)CCN2C(=O)NC3(CCCC3)C2=O)cc1,3,/,-35,4,5,4.5,8734
Cc1ccc(C(=O)C(C)OC(=O)Cc2c[nH]c3ccccc23)cc1 (configuration not stated),-4,-8,-14,0,-15,5.5,4581
COc1ccc(C(=O)N2CCOC2CNC(=O)C(=O)NCCc2ccc(OC)c(OC)c2)cc1 (configuration not stated),8,-7,-14,11,2,4.3,4028
O=C(CSc1nnc(SCc2ccccc2)s1)N/N=C/C=C/c1ccco1,/,0,-19,/,/,/,2493
CC(OC(=O)CN1C(=O)NC2(CCCCC2C)C1=O)c1ccccc1 (configuration not stated),1,/,3,1,-4,5.1,4074
COc1cccc(OC)c1OCCNC(C)(C)C,-3,-3,-4,14,6,-4.5,3889
COc1ccc(NC(=O)CN(C)CC(=O)Nc2ccc(N3CCOCC3)cc2)c([N+](=O)[O-])c1,4,-2,2,11,7,9.7,3284
CC(C)(C)OC(=O)N1CCC[C@H]1c1nnc(SC/C=C/c2ccccc2)o1,1,-4,-8,/,/,0.5,4708
COc1cc(C(C)=O)ccc1OCCN1CCC(Cc2ccccc2)CC1,13,/,-18,7,5,-0.1,3408
CCC(=O)Nc1c(C(=O)Nc2cccc(OC)c2)oc2ccccc12,3,1,-55,14,12,4.0,11719
COC(=O)c1cc(=O)cc(C(=O)OC)o1,10,1,-5,3,-1,5.7,3430
CC(C)(C)OC(=O)C[C@H]1C/C=C\C[C@H](CC(=O)N[C@H](CO)Cc2ccccc2)C(=O)N[C@H](Cc2ccccc2)COC1=O,9,/,0,1,-1,2.8,3609
N#CCc1ccc(OC(=O)c2cnccc2C(F)(F)F)cc1,19,11,-25,8,12,7.9,3348

# Nothing new here: an excerpt of the list.
SMILES,Sa ugtP lethal,BJeLR viability,PrP 5UTR inh,Mtb hypoxia rep,Mtb hypoxia rep growth,Sa RN4220 lethal,Autofluor counter
COc1ccc(C(=O)N2CCOC2CNC(=O)C(=O)NCCc2ccc(OC)c(OC)c2)cc1 (configuration not stated),8,-7,-14,11,2,4.3,4028
O=C(CSc1nnc(SCc2ccccc2)s1)N/N=C/C=C/c1ccco1,/,0,-19,/,/,/,2493

# The list continues.
SMILES,Sa ugtP lethal,BJeLR viability,PrP 5UTR inh,Mtb hypoxia rep,Mtb hypoxia rep growth,Sa RN4220 lethal,Autofluor counter
CCC(=O)Nc1ccc(C(=O)Nc2cccnc2)cc1,8,-4,-43,-1,-3,3.2,10513
Cc1cc(C)nc(Nc2ncc(O)n2-c2ccc(Br)cc2)n1,3,-2,-7,2,0,6.1,5180
CCOc1c2ccccc2nn1CCOC,5,/,-17,6,2,2.3,2811
S=c1[nH]nc(-c2ccc(Cl)cc2)n1/N=C/c1cccs1,/,-3,-10,/,/,/,6110
Cc1nnc(NC(=O)c2ccccc2NC(=O)c2ccccc2)s1,8,1,-66,11,9,20,3772
CCOC1OC(C(=O)Nc2ccccc2)=CC(c2ccc3c(c2)OCO3)C1CCCO (configuration not stated),2,/,/,15,7,4.6,/
CCN(C(=O)COC(=O)c1cc(-c2cccc3ccccc23)nc2ccccc12)C1CCS(=O)(=O)C1 (configuration not stated),2,-8,-20,-7,5,-3.0,2091
CCOc1ccc(C2CC(c3ccccc3C)n3ncnc3N2)cc1 (configuration not stated),7,-3,-6,/,/,1.6,5552
COc1ccccc1C(=O)Nc1nc2nc(-c3ccccc3)cc(=O)n2[nH]1,-14,0,-27,-3,4,-0.4,3210
Cc1nccn1C[C@@H]1CCc2c(c3ccccc3n2C)C1=O,/,2,-5,/,/,/,5642
COc1nnc(-c2ccc(N3CCOCC3)c(NC(=O)c3ccccc3)c2)c2ccccc12,-3,-4,5,4,4,17,6079
CC(=O)c1cccc(Nc2nc3ccccc3n3cnnc23)c1,-17,2,-45,-10,-9,-2.4,3625
Cc1oc(-c2cccc(Cl)c2)nc1CSc1nc2c(c(=O)[nH]1)CCC2,7,-1,-10,0,4,7.4,5723
CN(C(=O)COC(=O)CSc1ccc(C(N)=O)cc1[N+](=O)[O-])C1CCS(=O)(=O)C1 (configuration not stated),6,1,-17,9,-1,3.1,?
COc1ccc2c(-c3cnc(N4CCOCC4)nc3)c(-c3ccc(S(C)(=O)=O)cc3)sc2c1,78,/,-9,2,4,-10,4259

# Among those listed so far, two contain a COOH group.
SMILES,Sa ugtP lethal,BJeLR viability,PrP 5UTR inh,Mtb hypoxia rep,Mtb hypoxia rep growth,Sa RN4220 lethal,Autofluor counter
O=C(O)/C=C/C(=O)Nc1ccc(OC(F)(F)F)cc1Br,1,1,-39,7,12,0.0,/
COc1ccc(C2=NN(C(=O)CCC(=O)O)C(c3ccc([N+](=O)[O-])cc3)C2)cc1 (configuration not stated),5,-2,-15,5,-4,1.0,/

# (continued)
SMILES,Sa ugtP lethal,BJeLR viability,PrP 5UTR inh,Mtb hypoxia rep,Mtb hypoxia rep growth,Sa RN4220 lethal,Autofluor counter
O=C(COc1ccc2ccc(=O)oc2c1)Nc1ccc(CN2CCOCC2)cc1,-6,9,-3,9,-4,-1.2,5600
O=c1[nH]c2ccc(S(=O)(=O)NCc3ccccc3)cc2[nH]1,1,5,-9,0,6,7.1,5517
O=C(Nc1ccc(F)cc1F)N1CCCN(CCOc2ccccc2)CC1,13,2,-22,9,-5,2.0,/
O=C(c1ccco1)N1CCN(/C(=N/S(=O)(=O)c2cccs2)c2ccccc2Cl)CC1,/,-1,-24,/,/,/,2928
O=C(Nc1ccc2nc(SCc3ccc(Cl)cc3)sc2c1)c1ccccc1C(=O)N1CCOCC1,-2,9,-2,15,11,-14,/
C=CCc1cc(C)ccc1OCCCn1ccnc1,7,0,-22,17,11,3.9,3517
Cc1ccc(S(=O)(=O)CC(=O)N2CCN(c3ccccc3F)CC2)cc1,9,-2,-6,8,2,4.3,?
Cc1nc(SCC(=O)N2CCN(c3ccccc3)CC2)c2oc3ccccc3c2n1,-16,-1,-30,/,/,1.2,4654
